# StopGo RLuc = FMDV 2A StopGo reporter, Renilla signal | Potency, µM (top dose mostly 57.5 µM), inactives show top-dose signal change, negative = less light | 120,000 tested, 0.32% active | HEK cells with a luciferase reporter of 2A StopGo recoding; active means well fitted falling curve with a large enough effect; inconclusive means small, poorly fitted or top-dose-only effect; inactive means no such curve, though single readings can be large or run the other way; also: nearly all actives have a fitted effect of over 55% in size; overnight with compound
# StopGo FLuc = FMDV 2A StopGo reporter, firefly signal; HEK cells with a luciferase reporter of 2A StopGo recoding; Potency, µM (top dose mostly 57.5 µM), for the others: at the top dose signal change, negative = less light; 120,000 tested, 0.23% active; active = well fitted falling curve with a large enough effect; inconclusive = small, poorly fitted or top-dose-only effect; inactive = no such curve, though single readings can be large or run the other way; also: nearly all actives have a fitted effect of over 60% in size; overnight with compound
# * hit, by the source's call; ? = inconclusive; [ ] = another dose, or the depositor's remark. % is scaled to controls: 0 for no effect and ±100 for the full control effect; potency is read from the fitted curve at half-maximal effect. Only part of the results is shown; rates above refer to the full screens.
# Screens in order – StopGo RLuc | StopGo FLuc
CC(C)(C)NC(=O)c1ccc2nc(CCc3ccccc3)oc2c1
    2.0% | 138.5%[activator]
COc1ccccc1OCC(=O)NCC(c1ccc(Cl)cc1)N1CCCCC1 (stereo not given)
    -5.4% | -6.8%
CCC(C(=O)Nc1nnc(C)s1)c1ccccc1 (stereo not given)
    5.8% | 7.7%
CCOC(=O)c1ccc(Nc2nc3ccccc3nc2NS(=O)(=O)c2ccc(F)cc2)cc1
    2.0% | 16.2%
COc1ccc2c(c1)c(=O)c(C(=O)c1ccc(F)cc1)cn2CC(=O)Nc1ccc2c(c1)OCCO2
    -8.4% | -7.6%
CCOc1ccc(N2CC(C)Cn3c2nc2c3c(=O)n(CC(=O)O)c(=O)n2C)cc1 (stereo not given)
    -11.6% | -20.5%
OC(CNC(=S)Nc1ccc(Cl)cc1Cl)COCc1ccco1 (stereo not given)
    -46.1% | 36.8%[activator]
CCCc1ccc(S(=O)(=O)N2CCN(Cc3nc4ccccc4o3)CC2)cc1
    14.5% | 3.7%
O=C(CN1CCN(C(=O)c2nn(-c3ccccc3)c(=O)c3ccccc23)CC1)N1CCCCCC1
    -2.4% | 4.7%
O=C1CC(c2ccccc2)Cc2nc3nc(C(F)(F)F)nn3cc21 (stereo not given)
    -15.3% | -10.6%
CC(C)Cn1c(N2CCN(Cc3c(Cl)cccc3Cl)CC2)nc2c1c(=O)[nH]c(=O)n2C
    -7.8% | -6.0%
CCC1CCCCN1C(=O)Cn1c(=O)n(-c2cc(C)cc(C)c2)c(=O)c2sccc21 (stereo not given)
    28.2% | 60.5%[activator]
CCOC(=O)c1ccccc1NC(=O)c1nn(-c2ccc(C)cc2)c(=O)n(C)c1=O
    1.2% | -7.3%
COc1ccc(OC(C)C(=O)Nc2ccc(Br)cc2C)cc1 (stereo not given)
    10.4% | 12.5%
CS(=O)(=O)c1cccc(C(=O)N2CCCCCC2)c1
    0.7% | 12.3%
CCN1CCc2c(sc(NC(=O)Nc3cccc(C)c3)c2C(N)=O)C1
    0.0% | 71.0%[activator]
Cn1c(=O)c2c(nc(N(CCO)CCO)n2Cc2ccccc2)n(C)c1=O
    1.1% | 2.0%
O=C(CSc1nc(Cl)nc2nc[nH]c12)NCCc1ccc(Cl)cc1Cl
    -8.4% | 4.4%
O=C(CSc1nc2ccccc2s1)c1ccc2c(c1)OCCO2
    29.6% | 72.5%[activator]
CS(=O)(=O)Cc1ccc(C(=O)NCc2ccc(F)cc2)cc1
    2.4% | -4.5%
Cc1cc(CN(Cc2cc(C)c(O)c(C)c2)C2CCCCC2)cc(C)c1O
    -7.3% | 18.9%
CC(C)c1ccc(NC(=O)C(C)N(c2ccccc2)S(C)(=O)=O)cc1 (stereo not given)
    16.1% | 18.6%
COC(=O)C1CCN(C(=O)COC(=O)c2cccc3c(=O)c(C)c(-c4ccccc4)oc23)CC1
    0.0% | 0.0%
CC(C)c1nc2cc(NC(=O)NCc3ccccc3F)ccc2o1
    ? | 30.7%[activator]
Cc1cc(C)n2nc(CNC(=O)c3c(F)cccc3F)nc2n1
    -9.7% | -5.1%
COc1ccc(S(=O)(=O)c2c(C)c(C)n(C(C)C)c2NC(=O)C2CCCO2)cc1 (stereo not given)
    33.4%[activator] | -6.2%
N#Cc1nc(-c2ccc(COc3ccccc3)o2)oc1NCc1ccccc1
    12.8% | 15.6%
O=C(c1ccc(F)c(F)c1)N(C1CCCCC1)C1CCCCC1
    -3.1% | -11.4%
Cc1cc(F)ccc1NC(=O)c1ncoc1-c1cccc(Cl)c1
    -11.8% | -5.9%
CC1CCc2[nH]c3ccc(C(=O)Nc4ccccc4F)cc3c2C1 (stereo not given)
    9.5% | 0.0%
O=C(NCC(c1cccnc1)N1CCc2ccccc21)c1ccccc1Br (stereo not given)
    -4.1% | -23.3%
CCCCc1ncc(/C=C(\Cc2cccs2)C(=O)O)n1Cc1ccc(C(=O)O)cc1
    -11.5% | -9.1%[11.5 µM]
CCOc1ccc(NC(=O)c2cc3cc(Br)ccc3oc2=O)cc1
    -6.0% | -3.1%
COc1ccccc1C1=NS(=O)(=O)N(C)C(C(=O)N2CCN(C)CC2)=C1
    25.9% | 7.8%
Nc1c(-c2nc(-c3ccc(Cl)cc3)cs2)c2ccccn2c1C(=O)c1ccc2c(c1)OCO2
    -6.2% | -5.1%
O=C(CSc1ccc2c(c1)OCCO2)NC1CCCCC1
    17.8% | 0.0%
CC(C)OCCCNC(=O)c1ccccc1-c1ncc(-c2ccc(F)cc2)o1
    48.7%[activator] | 10.9%
CC(=O)Nc1ccc(CNC(=O)C2CCCC2)cc1
    -8.2%[1.06 µM] | 11.8%
COc1cccc(CNC(=O)CN2C(=O)CCCc3ccccc32)c1OC
    -8.0% | -1.0%
COc1cccc(/C=C/c2onc(C)c2S(=O)(=O)N2CCC(C(=O)N3CCC(C)CC3)CC2)c1
    -12.3% | -17.8%

# Among those listed so far, 2 contain a COOH group.
# Screens in order – StopGo RLuc | StopGo FLuc
CCOc1ccc(N2CC(C)Cn3c2nc2c3c(=O)n(CC(=O)O)c(=O)n2C)cc1 (stereo not given)
    -11.6% | -20.5%
CCCCc1ncc(/C=C(\Cc2cccs2)C(=O)O)n1Cc1ccc(C(=O)O)cc1
    -11.5% | -9.1%[11.5 µM]

# New compounds follow:
# Screens in order – StopGo RLuc | StopGo FLuc
Cc1ccc(-c2nnn(Cc3ncc(-c4ccccc4)o3)n2)cc1
    10.7% | 38.0%[activator]
CCC(=O)C1=C(c2ccc(C)cc2)N(C(=O)CC)n2c(Cc3ccc(OC)cc3)nnc2S1
    -6.0% | 3.1%
Cc1cccc(NC(=O)CCN2CCN(Cc3cccc4ccccc34)CC2)c1
    -9.4% | 3.6%
CC(=O)COC(=O)c1ccccc1C(=O)c1ccc(C)c(C)c1
    -5.7%[1.06 µM] | 35.7%[activator]
CCCC1N=C2c3ccccc3N=C(SCC(=O)Nc3ccc(OC)c(Cl)c3)N2C1=O (stereo not given)
    245.0%[activator] | 8.0%
CCC(CC)C(=O)Nc1nn2c(CC(C)C)nnc2s1
    -7.4% | -3.6%
Cc1cccc(NC(=O)N2CCC(CN3CCOCC3)CC2)c1C
    3.5% | 3.5%
COc1ccc(OC)c(-n2cnc3c2NC(=O)CC3c2ccsc2)c1 (stereo not given)
    -4.6% | 11.7%
COC(=O)c1cccc(C(=O)NCCc2ccccc2)c1
    47.5%[activator] | 0.0%
CCOc1ccc(-c2cc(C(=O)NCCCOC)c3c(-c4ccc(CC)cc4)[nH]nc3n2)cc1
    -6.1% | -11.9%
CC1Cc2cc(C(=O)c3cc4cc(Cl)ccc4o3)ccc2N1S(C)(=O)=O (stereo not given)
    ? | ?
Cc1cc(C)cc(NC(=O)c2cc(S(=O)(=O)N3CCCCCC3)cn2C)c1
    -4.3% | -5.5%
Cc1cccc(Cn2c(SCCN3CCOCC3)nc3c2c(=O)[nH]c(=O)n3C)c1
    -0.6% | 0.3%
COc1cccc(C(=O)Nc2c(C(=O)N3CCC(N4CCCCC4)CC3)oc3ccccc23)c1
    24.4% | -16.3%
COc1ccc(OC)c(NC(=O)c2c(NCc3ccc(OC)c(OC)c3)sc3c2CCC(C)C3)c1 (stereo not given)
    -22.6% | -21.6%
COc1ccc(-n2nc3ccc(NC(=O)c4cccc(OCCC(C)C)c4)cc3n2)cc1
    12.2% | -11.5%
COC(=O)c1ccc(CNC(=O)CCc2ncc(-c3ccccc3F)o2)cc1
    -2.1% | 53.3%[activator]
O=C(CSc1nccn1-c1ccccc1)c1cc(F)ccc1F
    69.3%[activator] | 144.1%[activator]
Cc1cccc(Oc2ccc(S(=O)(=O)N3CCCCC3)cc2NC(=O)c2ccncc2)c1
    59.9%[activator] | -7.6%
COc1ccccc1-c1noc(-c2ccc(NC(C)C)c([N+](=O)[O-])c2)n1
    3.0% | 152.9%[activator]
Cc1c(Cl)cccc1NC(=O)CCN1CCN(Cc2cccc3ccccc23)CC1
    -17.8% | -14.1%
COc1ccc(OCC(=O)NCCS(=O)(=O)N2CCN(c3cccc(Cl)c3)CC2)cc1
    -6.5% | -23.5%
CCc1nonc1NC(=O)c1oc2ccc(Cl)cc2c1C
    0.1% | 52.8%[activator]
Cc1ccc(CCNC(=O)CCc2cn(Cc3ccccc3C)c3ccccc23)cc1
    -6.6% | -6.1%
c1cc(CNCC2CCCO2)c2cc[nH]c2c1 (stereo not given)
    -4.3% | 41.9%[activator]
COc1cccc(N2CCN(S(=O)(=O)c3cc(Br)cc4c3N(C(=O)C3CC3)CC4)CC2)c1
    78.8%[activator] | -6.0%
CCOC(=O)CSc1ncn(-c2nc(NC)nc(N(C)C)n2)n1
    -5.0% | 1.6%
COC(=O)C1=C(c2ccccc2)c2ccccc2S(=O)(=O)N1CC(=O)Nc1cccc(C(C)=O)c1
    20.3% | 7.6%
CSc1cccc(NC(=O)Nc2ccccc2OCc2cc(=O)n3cc(C)ccc3n2)c1
    -14.9% | -21.0%
CCc1cc(C(=O)Nc2c(C)nn(Cc3ccc(C)cc3)c2C)no1
    ? | ?
c1ccc(OCCn2c(COc3ccccc3)nc3ccccc32)cc1
    0.3% | 68.3%[activator]
COc1ccc(S(=O)(=O)NCCc2cc3ccc(C)c(C)c3[nH]c2=O)cc1
    14.6% | -4.1%
N#Cc1ccc(C(=O)NCCc2ccccn2)cc1
    -1.5% | 150.0%[activator]
N#Cc1ccc(CSc2ccccc2C(=O)NCCc2ccc3c(c2)OCCO3)cc1
    ? | ?
CC(C)(C)C(=O)Nc1ccc2oc(-c3cncc(Br)c3)nc2c1
    24.7% | 251.5%[activator]
COc1ccc(C(=O)Nc2nnc(SCc3cc(=O)n4cccc(C)c4n3)s2)cc1
    7.8% | 41.9%[activator]
CC1CCN(S(=O)(=O)c2ccc(NC(=O)c3cc(=O)c4ccccc4o3)cc2)CC1
    -4.7% | -14.8%
Cc1ccc(CN(C(=O)c2cc(=O)c3cc(Cl)c(C)cc3o2)c2ccccn2)o1
    -7.2% | 41.1%[activator]
CCN(Cc1ccc(Br)s1)C(=O)Cn1nnc(-c2ccc(Cl)cc2)n1
    -14.9% | -6.3%
CCN(CC)C1c2cccc3cccc(c23)C1NS(=O)(=O)c1ccccc1 (stereo not given)
    61.0%[activator] | -6.6%
COc1ccc(Nc2cc(C)c3cc(NC(=O)c4cc(OC)cc(OC)c4)ccc3n2)cc1
    -21.9% | ?
COC(=O)/C(=C/c1cccc([N+](=O)[O-])c1)C(C)=O
    -3.9% | 7.2%
Cc1cccc(C(=O)N/C(=C/c2ccco2)C(=O)O)c1
    2.0% | 16.4%
Cc1cc2oc(=O)cc(CSc3nnnn3C3CC3)c2cc1C
    6.8% | 21.3%
Cc1ccc(Cn2cc(CCC(=O)NCc3ccc(OC(C)C)cc3)c3ccccc32)cc1
    -1.8% | -16.9%
Cc1c(C(=O)NCc2ccccc2)oc2ccc(S(=O)(=O)N3CCC(C)CC3)cc12
    5.5% | -4.9%
CC(=O)NCCCNC(=O)NC1CCC(C)CC1 (stereo not given)
    8.3% | 0.0%
CCN(CC)c1nc(SC)nc(-c2ccc(Cl)cc2)c1C#N
    1.8% | 5.6%
CCOc1ccc(-n2c(=O)c3c(C)c(C)sc3n(CC(=O)NCCc3ccccc3)c2=O)cc1
    -4.5% | -0.2%
O=C(CSc1nnc(CNC(=O)c2cccc(F)c2)n1-c1ccccc1)Nc1ccccc1F
    3.7% | -11.9%
O=C(CCc1ncc(-c2ccccc2)o1)Nc1ccccc1Cl
    15.4% | 42.4%[activator]
COc1cc2c(=O)n(CCC(=O)NCC3CCCO3)c(=O)n(CC(=O)Nc3ccc(C)cc3C)c2cc1OC (stereo not given)
    -7.1% | -19.9%
CCn1c(CC2C(=O)Nc3ccccc32)nc2ccccc2c1=O (stereo not given)
    -7.4% | 2.5%
CC(C)(C)c1ccc(Oc2ccc(NC(=O)CCC(=O)OCC(=O)c3ccccc3)cc2)cc1
    -26.5% | 26.1%
COc1ccc(CNCCc2c[nH]c3ccccc23)cc1OC
    -11.7% | -10.9%
CC(C)(C)c1ccc(S(=O)(=O)N2CCC(Oc3ccc(-n4cnnn4)cc3)CC2)cc1
    5.1% | -14.7%
CCNC(=O)c1ccc2c(c1)NC(=O)CS2
    3.4% | 10.7%
CC(C)(C)C(=O)NC(c1ccc(Cl)cc1)c1cccnc1 (stereo not given)
    -1.9% | 6.1%
NC(N)=NCCN1CCCCCCC1
    -7.4%[0.46 µM] | -12.3%[0.46 µM]
COc1ccc(-c2ocnc2C(=O)Nc2cc(Cl)ccc2OC)cc1
    -11.7% | -4.1%

# Next part.
# Screens in order – StopGo RLuc | StopGo FLuc
CCOc1ccccc1C1CC(c2cccc(NS(C)(=O)=O)c2)=NN1C(=O)c1ccco1 (stereo not given)
    41.6%[activator] | 21.1%
O=C1CC(c2nnc(Cc3ccc(F)cc3)o2)CN1c1ccccc1 (stereo not given)
    54.5%[activator] | -14.5%
O=C(CCc1c[nH]c2ccccc12)OCc1ccccc1
    14.4% | ?
Cn1c(NCC2CCCO2)nc2c1c(=O)n(Cc1ccccc1)c(=O)n2C (stereo not given)
    -5.5% | 10.3%
COCCCNC(=O)CSc1ccc(C)cc1
    1.7% | 10.1%
O=C(NCCc1cccnc1)c1ccc(Cl)cc1
    -8.2% | 118.0%[activator]
Cc1[nH]c2c(C)cccc2c1CCNC(=O)c1cc2ccccc2oc1=O
    -6.0% | -4.9%
O=c1c2ccccc2c(-c2nnc(SCCO)o2)nn1Cc1ccccc1
    81.1%[activator] | 20.7%
CCOC(=O)c1cccc(NC(=O)CCn2nc(C)c(S(=O)(=O)N3CCCC3)c2C)c1
    4.7% | 12.9%
CCCCn1c(SCC(=O)Nc2cccc(OC)c2)nc2ccsc2c1=O
    67.1%[activator] | -17.2%
O=C(Nc1ccc(Br)cc1F)N1CC=C(c2c[nH]c3ccccc23)CC1
    19.3% | 91.0%[activator]

# Screening data (PubChem BioAssay)
